Vaccinia inh: blocks a specific stage of Vaccinia orthopoxvirus infection. Vaccinia-infected cells, mCherry/Venus stage reporter fluorescence; active compounds read low; some inactives read as strong as hits. activity change (mCherry), % (concentration not given with the values). 89,000 tested, 0.01% active. AID 1053133;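 active = mCherry past -33% and 40 or more points under the early reporter, replicates agreeing; inconclusive = past -33% without that gap or agreement; tested in A549 cells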;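 also: scaled between vehicle wells and reference inhibitor wells; 23 nL library stock went into each well; one replicate is shown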
Vaccinia inh Venus: further read-out of Vaccinia inh, marked with its call; activity change (Venus), %; measured here: Venus reporter, other viral stage;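 negative = less Venus signal; first of two replicates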
* hit, by the source's call; ? = inconclusive; . = not tested or not shown.

SMILES | Vaccinia inh | Vaccinia inh Venus
C[C@H](CO)N1C[C@H](C)[C@@H](CN(C)S(=O)(=O)c2ccccc2)Oc2c(NS(=O)(=O)c3ccccc3)cccc2C1=O | 14 | 5
C[C@@H]1CN([C@H](C)CO)C(=O)c2cc(-c3ccc(C(=O)N(C)C)cc3)cnc2O[C@@H]1CN(C)C | 16 | 3
CCc1cnc(N2[C@H](CO)[C@H](c3ccccc3)[C@@H]2C#N)s1 | -18 | -10
COc1ccc2c3c(n(C)c2c1)[C@H](CO)N(C)CC31CN(CC2CC2)C1 | 4 | 8
C[C@H](CO)N1C[C@H](C)[C@H](CN(C)S(=O)(=O)c2cccs2)Oc2c(NS(C)(=O)=O)cccc2C1=O | 32 | 12
N#C[C@H]1[C@@H](c2ccc(-c3cccc(F)c3)cc2)[C@@H](CO)N1C(=O)c1cccnc1 | -11 | -5
COc1ccc(C#Cc2cnc3c(c2)C(=O)N([C@@H](C)CO)C[C@H](C)[C@H](CN(C)CC2CCCC2)O3)cc1 | -27 | -23
CCCNC(=O)N(C)C[C@@H]1Oc2cc(-c3ccncc3)ccc2S(=O)(=O)N([C@H](C)CO)C[C@@H]1C | 10 | 6
CO[C@@H]1CN(C)C(=O)c2ccc(NC(=O)C3CC3)cc2OC[C@H](C)N(C)C[C@@H]1C | 9 | 8
COc1ccc2c3c(n(C)c2c1)[C@@H](CO)N(C(=O)c1cccnc1)CC31CCN(C)CC1 | 22 | 5
O=C([C@H]1[C@H](CO)[C@H]2Cn3c(cccc3=O)[C@@H]1N2C(=O)c1ccccn1)N1CCCCC1 | 1 | 3
O=C1CN(Cc2ccccc2)C[C@@H]2[C@@H](c3ccc(-c4ccccc4F)cc3)[C@H](CO)N12 | -2 | -2
C[C@H](CO)N1C[C@H](C)[C@H](CN(C)C(=O)Nc2cccc3ccccc23)Oc2ccc(NS(C)(=O)=O)cc2C1=O | 29 | 18
CCC(=O)NC[C@H]1[C@H](c2ccc(-c3ccccc3)cc2)[C@H](CO)N1C(=O)C1CC1 | -3 | 11
CN(C)CC(=O)N[C@@H]1CC[C@@H](CC(=O)NCCN2CCCCC2)O[C@@H]1CO | 22 | 22
CO[C@H]1CN(C)C(=O)c2cc(NS(C)(=O)=O)ccc2OC[C@H](C)N(C)C[C@@H]1C | 2 | 12
CC(C)(C)S(=O)N1Cc2cc(C(=O)NCCCN3CCOCC3)nc(-c3cccc(C#CCC4CCCC4)c3)c2[C@@H]1CCO (stereo partly drawn) | ? | .
C[C@@H]1CN([C@@H](C)CO)C(=O)c2cc(NC(=O)Cn3cnnn3)ccc2O[C@@H]1CN(C)Cc1ccc(Cl)c(Cl)c1 | 7 | 6
CCC(=O)N(C)C[C@H]1Oc2ncc(C#CC3(O)CCCC3)cc2C(=O)N([C@H](C)CO)C[C@@H]1C | 34 | 16
COc1ccc2c3c(n(C)c2c1)[C@H](CO)N(CC1CCCC1)CC31CCN(Cc2nccs2)CC1 | -7 | -5
N#C[C@@H]1[C@@H](c2ccccc2-c2ccc(F)cc2)[C@@H](CO)N1C(=O)Cc1ccccc1 | 9 | 9
CCCN(C)C[C@@H]1Oc2cc(C#CC3CCCC3)ccc2S(=O)(=O)N([C@@H](C)CO)C[C@H]1C | -1 | -3
O=C(Nc1ccccc1F)N1[C@H](CO)[C@H]2c3ccccc3NC[C@H]21 | -2 | 4
O=C(NCC[C@@H]1CC[C@H](NC(=O)C2CC2)[C@@H](CO)O1)c1cnccn1 | -3 | -4
C[C@H](CO)N1C[C@H](C)[C@H](CN(C)C)Oc2ccc(NC(=O)CCCCCC(=O)Nc3ccccc3N)cc2C1=O | 25 | 8
C[C@H]1CN([C@@H](C)CO)S(=O)(=O)c2ccc(C3=CCCC3)cc2O[C@@H]1CN(C)Cc1ccccc1F | -21 | -24
C[C@H]1CN([C@@H](C)CO)C(=O)Cc2cc(NC(=O)CCC(F)(F)F)ccc2O[C@H]1CN(C)CC1CCCCC1 | -5 | 3
O=C(C[C@H]1C[C@@H]2c3cc(NC(=O)Nc4ccccc4F)ccc3O[C@@H]2[C@@H](CO)O1)NCc1cc(F)ccc1F | ? | .
CCCNC(=O)N1CC2(CCN(Cc3cccc(OC)c3)CC2)c2c(n(C)c3cc(OC)ccc23)[C@@H]1CO | ? | .
CNC[C@@H]1Oc2ccc(NC(=O)Nc3ccc(C(F)(F)F)cc3)cc2C(=O)N([C@@H](C)CO)C[C@@H]1C | -1 | -5
CO[C@@H]1CN(C)C(=O)c2ccc(NC(=O)C3CC3)cc2OC[C@H](C)N(C(=O)C2CCOCC2)C[C@H]1C | 21 | 14
CCC(=O)N1[C@H](CO)[C@@H](c2ccccc2)[C@@H]1CN(C)C(=O)c1cccc(F)c1 | 11 | 7
C/C=C/c1ccc2c(c1)O[C@@H](CN(C)C(=O)Nc1ccc(F)cc1)[C@@H](C)CN([C@@H](C)CO)S2(=O)=O | -28 | -22
COCC(=O)N1[C@H](CO)[C@@H](c2ccc(-c3cccnc3)cc2)[C@@H]1C#N | -1 | 4
O=C(N[C@@H]1CC[C@@H](CCNS(=O)(=O)c2ccccc2)O[C@H]1CO)c1cccnc1 | -5 | 9
CN1C(=O)c2cc(NC(=O)C3CCOCC3)ccc2OC[C@H]2O[C@H](CC(=O)NCC3CC3)CC[C@@H]21 | 10 | 8
COc1ccccc1CN1C[C@@H](C)[C@H](OC)CN(C)C(=O)c2ccc(NC(C)=O)cc2OC[C@H]1C | -5 | -6
COc1ccc(CNC(=O)C[C@H]2CC[C@@H]3[C@@H](COc4ccc(NC(=O)C(C)C)cc4C(=O)N3C)O2)cc1 | -4 | -4
Cc1ccc(S(=O)(=O)Nc2ccc3c(c2)C(=O)N([C@@H](C)CO)C[C@H](C)[C@@H](CN(C)Cc2ccc4c(c2)OCO4)O3)cc1 | 23 | 14
C[C@H](CO)N1C[C@H](C)[C@@H](CN(C)C(=O)CC2CC2)Oc2cc(C#CCC3CCCC3)ccc2S1(=O)=O | -22 | -19
COC(=O)C[C@@H]1CC[C@H]2[C@H](COc3ccc(NC(=O)Nc4ccc(C#N)cc4)cc3C(=O)N2C)O1 | -12 | -6
C[C@@H]1CN([C@@H](C)CO)S(=O)(=O)c2ccc(C3=CCCCC3)cc2O[C@H]1CN(C)S(=O)(=O)c1cn(C)cn1 | -33 | -21
O=S(=O)(c1ccccc1F)N1C[C@@H]2N[C@H](C1)C2c1ccc(-c2ccncc2)cc1 (stereo partly drawn) | ? | .
O=C(C[C@H]1CC[C@H]2[C@@H](COC[C@H](O)CN2Cc2cc(F)cc(F)c2)O1)NC1CCCC1 | -4 | -3
C/C=C/c1ccc2c(c1)O[C@H](CN(C)C(=O)NC1CCCC1)[C@H](C)CN([C@H](C)CO)S2(=O)=O | 21 | 21
O=C(C1CCCCC1)N1CC2(C1)[C@@H](c1ccccc1)[C@H](CO)N2C(=O)c1cccnc1 | 4 | 6
CN(C)C(=O)c1ccc(-c2ccc([C@@H]3[C@H](CO)N4C(=O)CN(C(=O)C5CCCCC5)C[C@@H]34)cc2)cc1 | 2 | -3
O=C(NCC[C@@H]1CC[C@H](NS(=O)(=O)c2ccc(Cl)cc2)[C@@H](CO)O1)c1ccccc1F | ? | .
COc1ccc(CN(C)C[C@H]2Oc3ccc(NC(=O)Nc4cccc5ccccc45)cc3C(=O)N([C@@H](C)CO)C[C@H]2C)cc1 | ? | .
O=C(Nc1ccc(F)cc1)N1[C@@H](CO)[C@@H]2c3ccccc3NC[C@@H]21 | 2 | -1

Later entries:
SMILES | Vaccinia inh | Vaccinia inh Venus
C[C@@H]1CN([C@H](C)CO)S(=O)(=O)c2ccc(C3=CCCC3)cc2O[C@H]1CN(C)CC1CCOCC1 | ? | .
O=C(C1CCCC1)N1C[C@H]2[C@@H](c3ccccc31)[C@@H](CO)N2C(=O)Nc1cccc(F)c1 | 6 | 6
C/C=C/c1ccc([C@H]2[C@@H](CO)N(C(C)=O)[C@@H]2CN(CC)C(=O)CN(C)C)cc1 | 5 | 9
C[C@@H]1CN([C@@H](C)CO)C(=O)c2c(c3ccccc3n2C)-c2ccccc2CO[C@@H]1CN(C)C(=O)Nc1cccc(C(F)(F)F)c1 | ? | .
Cc1noc(C)c1NC(=O)N(C)C[C@@H]1OCCCC[C@@H](C)Oc2ccc(NC(=O)C3CCCCC3)cc2C(=O)N([C@H](C)CO)C[C@H]1C | 20 | 4
C[C@H]1CN([C@@H](C)CO)C(=O)Cc2cc(NC(=O)Cn3cnnn3)ccc2O[C@@H]1CN(C)Cc1ccc(C(=O)O)cc1 | -5 | 7
O=C(C[C@H]1C[C@H]2c3cc(NC(=O)NC4CCCC4)ccc3O[C@H]2[C@@H](CO)O1)NCc1ccccn1 | 13 | 3
C[C@@H]1CN([C@@H](C)CO)C(=O)Cc2cc(NC(=O)Nc3cccc4ccccc34)ccc2O[C@@H]1CN(C)C | -6 | -10
Cc1cccc(S(=O)(=O)N[C@H]2CC[C@@H](CCNS(=O)(=O)c3ccccc3F)O[C@H]2CO)c1 | -5 | -5
COCC(=O)N1C[C@H](C)[C@H](OC)CN(C)C(=O)c2ccc(NC(=O)c3cnccn3)cc2OC[C@H]1C | 35 | 6
CN(C)CC#Cc1ccc([C@H]2[C@H]3CN(C(=O)CN(C)C)CCCCN3[C@H]2CO)cc1 | 25 | 0
O=C(Cc1ccccc1)N1CC2(C1)[C@H](c1ccccc1)[C@H](CO)N2C(=O)Cc1ccccc1 | 2 | 4
CC(=O)N1CCCCN2[C@H](CO)[C@@H](c3ccc(Br)cc3)[C@@H]2C1 | 11 | 3
COCC(=O)Nc1ccc2c(c1)C(=O)N(C)C[C@H](OC)[C@@H](C)CN(CC1CC1)[C@H](C)CO2 | -10 | 1
O=C(C1CCCC1)N1C[C@@H]2[C@H](c3ccccc31)[C@@H](CO)N2C(=O)c1ccccc1F | -1 | 6
COCC#Cc1cnc2c(c1)C(=O)N([C@@H](C)CO)C[C@@H](C)[C@H](CN(C)C(=O)CCN1CCCCC1)O2 | 23 | 6
CO[C@@H]1CN(C)C(=O)c2cccc(C#N)c2OC[C@H]2O[C@@H](CC[C@H]2OC)CCN(C)C(=O)[C@H]1C | 10 | 3
CC(=O)N(C)C[C@H]1Oc2ncc(-c3ccccc3F)cc2C(=O)N([C@H](C)CO)C[C@@H]1C | 2 | -7
COc1ccccc1-c1cnc2c(c1)C(=O)N([C@H](C)CO)C[C@H](C)[C@H](CN(C)CC1CCCC1)O2 | -9 | 0
CCC(=O)N(C)C[C@@H]1Oc2ncc(C#Cc3ccncc3)cc2C(=O)N([C@@H](C)CO)C[C@@H]1C | 6 | 5
C[C@@H]1CN([C@H](C)CO)C(=O)c2cc(C3=CCCC3)cnc2O[C@H]1CN(C)Cc1ccc(F)cc1 | -17 | -13
O=C(C1CCC1)N1CC(=O)N2[C@@H](CO)[C@@H](c3ccc(C#Cc4cccc(F)c4)cc3)[C@@H]2C1 | ? | .
COc1ccc(NC(=O)Nc2ccc3c(c2)CC(=O)N([C@@H](C)CO)C[C@H](C)[C@@H](CN(C)C(=O)Nc2ccc(F)cc2)O3)cc1 | -6 | -3
COc1ccc(S(=O)(=O)N[C@@H]2C=C[C@@H](CC(=O)NCCc3ccncc3)O[C@H]2CO)cc1 | 4 | -2
Cc1ccc(S(=O)(=O)N(C)C[C@@H]2Oc3c(NC(=O)c4ccncc4)cccc3C(=O)N([C@@H](C)CO)C[C@@H]2C)cc1 | 6 | 8
CC(C)(C)S(=O)N1Cc2cc(C(=O)NCCCN3CCOCC3)nc(-c3cccc(-c4cccc(F)c4)c3)c2[C@H]1CCO (stereo partly drawn) | -22 | -5
COc1ccc2c3c([nH]c2c1)[C@@H](CO)N(C(=O)Cc1ccccn1)CC31CCN(Cc2ccccn2)CC1 | -1 | 3
CN(C)C(=O)c1cccc(-c2ccc([C@@H]3[C@@H](C#N)N(C(=O)C4CCCCC4)[C@H]3CO)cc2)c1 | 0 | -1
C[C@@H]1CN([C@@H](C)CO)C(=O)c2cc(-c3ccc(F)cc3)cnc2O[C@H]1CN(C)C(=O)Nc1ccccc1F | -4 | 3
N#Cc1cccc(-c2ccc([C@@H]3[C@H]4CN(C(=O)Nc5cccc(F)c5)CCCCN4[C@H]3CO)cc2)c1 | ? | .
N#C[C@H]1[C@@H](c2ccc(-c3ccccc3F)cc2)[C@@H](CO)N1C(=O)Cc1ccccc1 | -5 | 0
CO[C@@H]1CN(C)C(=O)c2ccc(NS(=O)(=O)c3ccc(Oc4ccccc4)cc3)cc2OC[C@H](C)NC[C@H]1C | -25 | -18

Molecules above with a cyano group (9):
SMILES | Vaccinia inh | Vaccinia inh Venus
CCc1cnc(N2[C@H](CO)[C@H](c3ccccc3)[C@@H]2C#N)s1 | -18 | -10
N#C[C@H]1[C@@H](c2ccc(-c3cccc(F)c3)cc2)[C@@H](CO)N1C(=O)c1cccnc1 | -11 | -5
N#C[C@@H]1[C@@H](c2ccccc2-c2ccc(F)cc2)[C@@H](CO)N1C(=O)Cc1ccccc1 | 9 | 9
COCC(=O)N1[C@H](CO)[C@@H](c2ccc(-c3cccnc3)cc2)[C@@H]1C#N | -1 | 4
COC(=O)C[C@@H]1CC[C@H]2[C@H](COc3ccc(NC(=O)Nc4ccc(C#N)cc4)cc3C(=O)N2C)O1 | -12 | -6
CO[C@@H]1CN(C)C(=O)c2cccc(C#N)c2OC[C@H]2O[C@@H](CC[C@H]2OC)CCN(C)C(=O)[C@H]1C | 10 | 3
CN(C)C(=O)c1cccc(-c2ccc([C@@H]3[C@@H](C#N)N(C(=O)C4CCCCC4)[C@H]3CO)cc2)c1 | 0 | -1
N#Cc1cccc(-c2ccc([C@@H]3[C@H]4CN(C(=O)Nc5cccc(F)c5)CCCCN4[C@H]3CO)cc2)c1 | ? | .
N#C[C@H]1[C@@H](c2ccc(-c3ccccc3F)cc2)[C@@H](CO)N1C(=O)Cc1ccccc1 | -5 | 0

Assay outcomes: PubChem BioAssay, Broad Institute

Not all compounds are listed (hit frequency here may not be typical).
